Plk1 PBD FP: inhibitors of human Plk1 polo box domain binding | P53350 | Plk1 PBD phosphopeptide binding, fluorescence polarization | inhibition, %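 (tested at about 20 µM)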 | 97,000 compounds, 0.13% hits | AID 693; in the data active = inhibition above about 34%, passing the limit was not always enough
Rev-RRE block: disrupts HIV-1 Rev binding to RRE RNA. P05866. Rev peptide-RRE RNA binding, FRET. inhibition, % at 8 µM. 97,000 compounds, 0.79% hits;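 active = inhibition above the screen-wide mean plus 3 SD, cut at about 35% in these data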;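 also: 0% = median DMSO wells and 100% = median Neomycin B control wells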
Target sequence (P05866 whole entry, looked up): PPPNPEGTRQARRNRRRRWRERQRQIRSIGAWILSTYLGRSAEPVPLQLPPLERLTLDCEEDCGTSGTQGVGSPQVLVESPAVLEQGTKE
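Test system: labelled RRE RNA duplex and labelled Rev peptide. Times: 5 min compound–RNA preincubation, then 15 min with peptide, 25 °C. Doses: single-dose 8 µM. Measured by: FRET, excitation 480 nm, emission 540 nm donor and 671 nm acceptor. Measure: % inhibition of FRET ratio versus controls.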
EphB4 ephrin blk: EphB4-ephrin-B2 interaction antagonism; 97,000 compounds, 0.15% hits; EphB4 LBD / TNYL-RAW-Alexa532 peptide, fluorescence polarization; inhibition, % at 7 µM;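 active = inhibition above the screen-wide mean inhibition plus 3 SD, cut at about 15% in these data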;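 also: 0% = DMSO wells and 100% = excess unlabeled TNYL-RAW peptide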
PLAP act: human PLAP activation | P05187 | purified PLAP enzyme, luminescent substrate read-out; stronger effect = higher value | activation fold at 20 µM | 96,000 compounds, 1.2% hits | AID 696; in the data active = activation fold above about 2
PLK1 kinase inh: inhibitors of human PLK1 kinase; AID 619; recombinant PLK1 kinase, TR-FRET peptide phosphorylation; 97,000 compounds, 0.53% hits; inhibition, % at 10 µM;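 active = inhibition of 50% or more in the single-concentration screen; inactive = inhibition below 50%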;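 also: 0% = DMSO max control and 100% = H-89 dihydrochloride min control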
* hit, by the source's call; / = not tested or not shown.

A first look:
Key to letters – A = Plk1 PBD FP; B = Rev-RRE block; C = EphB4 ephrin blk; D = PLAP act; E = PLK1 kinase inh
1. COC(=O)C(NNc1ccccc1)(NC(=O)c1ccccc1F)C(F)(F)F (stereo unspecified)
  A: -7 | B: 3 | C: -4 | D: 0.9 | E: -3
2. O=C(Nc1cccn(Cc2ccc(F)cc2)c1=O)NC1CCCCC1
  A: -11 | B: 8 | C: 4 | D: 0.6 | E: -9
3. Cc1ccc(/C=N/NC(=O)CSc2nc3ccccc3n2C)s1
  A: -30 | B: -1 | C: -6 | D: 1 | E: -14
4. Cc1c(NC(=S)NC(=O)C(c2ccccc2)c2ccccc2)cccc1C(=O)O
  A: -22 | B: -7 | C: -2 | D: 1.1 | E: -1

The list itself, from the start:
Key to letters – A = Plk1 PBD FP; B = Rev-RRE block; C = EphB4 ephrin blk; D = PLAP act; E = PLK1 kinase inh
1. COC(=O)C(NNc1ccccc1)(NC(=O)c1ccccc1F)C(F)(F)F (stereo unspecified)
  A: -7 | B: 3 | C: -4 | D: 0.9 | E: -3
2. O=C(Nc1cccn(Cc2ccc(F)cc2)c1=O)NC1CCCCC1
  A: -11 | B: 8 | C: 4 | D: 0.6 | E: -9
3. Cc1ccc(/C=N/NC(=O)CSc2nc3ccccc3n2C)s1
  A: -30 | B: -1 | C: -6 | D: 1 | E: -14
4. Cc1c(NC(=S)NC(=O)C(c2ccccc2)c2ccccc2)cccc1C(=O)O
  A: -22 | B: -7 | C: -2 | D: 1.1 | E: -1
5. NNC(=O)c1cc2c(s1)CCCCCC2
  A: -36 | B: 16 | C: 6 | D: 1 | E: -4
6. O=S(=O)(NCCOCC(F)(F)F)c1ccc2oc3ccccc3c2c1
  A: 3 | B: 15 | C: -5 | D: 1 | E: 0
7. COC(=O)C1=C(NC(=O)c2ccc(C)cc2)CCS1
  A: 23 | B: 2 | C: -4 | D: 1 | E: -2
8. COc1cc(/C=C(/C#N)c2nc3ccccc3[nH]2)ccc1OCc1ccc(C(=O)O)o1
  A: -36 | B: 9 | C: 1 | D: 1.4 | E: -12
9. CCCN(CCC)C(=O)CSc1nc2ccccc2c(=O)n1CC1COc2ccccc2O1 (stereo unspecified)
  A: 1 | B: 0 | C: -3 | D: 1.1 | E: -4
10. Nc1nc(Br)c2c(F)cccc2c1-c1ccccc1
  A: -21 | B: 2 | C: -7 | D: 1.2 | E: -14
11. CCN(CC)c1cc(C)c2cc(NC(=O)c3ccc(Br)o3)ccc2n1
  A: -21 | B: 14 | C: 3 | D: 1 | E: 4
12. CCOc1cc(NC(=S)Nc2cccc(OC)c2)c(OCC)cc1NC(=O)c1ccc(C)cc1
  A: -16 | B: -3 | C: 0 | D: 0.9 | E: -11
13. COc1ccc(Nc2ncc(C(=O)N3CCN(Cc4ccccc4)CC3)c3ccccc23)cc1
  A: 8 | B: -1 | C: -5 | D: 1.4 | E: -10
14. NCCCCCc1nnc(SCc2ccc(Cl)c(Cl)c2)o1
  A: 31 | B: -2 | C: 2 | D: 1.3 | E: -7
15. CCCn1nc2cc(C(=O)NCc3ccccc3)ccc2c1OCC
  A: -16 | B: 10 | C: 1 | D: 1.2 | E: -8
16. Fc1ccc(NCc2ccccc2F)cc1Cl
  A: 17 | B: 0 | C: 3 | D: 1.1 | E: -13
17. O=C(Cn1cccc1)NCc1cccs1
  A: -3 | B: 3 | C: -5 | D: 1.1 | E: -12
18. Cc1ccc(C(=O)OCCc2c(C)[nH]n(-c3ccccc3)c2=O)cc1
  A: -29 | B: -8 | C: -3 | D: 0.8 | E: -15
19. COC(=O)c1[nH]c2ccc(C)cc2c1NC(=O)CN1CCN(Cc2ccccc2)CC1
  A: -25 | B: 11 | C: 8 | D: 1.4 | E: -14
20. O=C(CSCc1ccc(Cl)cc1)Nc1ccc2c(c1)OCCO2
  A: -7 | B: -2 | C: 7 | D: 1 | E: 6
21. COC(=O)c1ccc(CNC(=O)CSc2nc3sc(C)c(C)c3c(=O)n2C)o1
  A: -17 | B: 8 | C: 4 | D: 1 | E: -6
22. N/C(Cc1cccs1)=N\OC(=O)COc1ccc(Br)cc1Cl
  A: 18 | B: 17 | C: -2 | D: 0.9 | E: -8
23. CCN(CC)C(=O)C1CCN(S(=O)(=O)c2ccc3oc4ccccc4c3c2)CC1
  A: -14 | B: 2 | C: -1 | D: 1.2 | E: -6
24. O=C(O)c1ccc(S(=O)(=O)NC2CCCc3ccccc32)cc1 (stereo unspecified)
  A: -8 | B: 5 | C: 2 | D: 1.2 | E: -7
25. COc1ccc(C2NC(=O)c3sc4nc(C)c(C(C)=O)c(-c5ccc(Cl)cc5)c4c3N2)cc1 (stereo unspecified)
  A: -11 | B: 8 | C: 3 | D: 1.1 | E: -23

Along the list, from the results shown.
PLAP act for nos. 9–17, in order: 1.1, 1.2, 1, 0.9, 1.4, 1.3, 1.2, 1.1, 1.1
PLK1 kinase inh for nos. 9–17, in order: -4, -14, 4, -11, -10, -7, -8, -13, -12
EphB4 ephrin blk for nos. 9–17, in order: -3, -7, 3, 0, -5, 2, 1, 3, -5

(cont.)
Key to letters – A = Plk1 PBD FP; B = Rev-RRE block; C = EphB4 ephrin blk; D = PLAP act; E = PLK1 kinase inh
26. CCC(CC)C(=O)N(c1ccc(F)cc1)C1C=CS(=O)(=O)C1 (stereo unspecified)
  A: -15 | B: 3 | C: 0 | D: 0.9 | E: -7
27. O=C(O)Cc1ccc(NC(=O)C2CCCCC2C(=O)O)cc1 (stereo unspecified)
  A: -9 | B: 8 | C: 2 | D: 1.1 | E: -7
28. Cc1c(C(=O)Nc2ccc(OC(F)(F)F)cc2)sc2nc3n(c(=O)c12)CCC3
  A: -19 | B: 9 | C: 1 | D: 1 | E: -6
29. Nc1cc(Cl)ccc1Oc1ccccc1
  A: 8 | B: 4 | C: -1 | D: 1 | E: 2
30. CC(C)CN(C(=O)COC(=O)c1cc2ccccc2oc1=O)C1CCS(=O)(=O)C1 (stereo unspecified)
  A: / | B: / | C: / | D: 1 | E: /

Full records, quoted from the list. Order of values: Plk1 PBD FP	Rev-RRE block	EphB4 ephrin blk	PLAP act	PLK1 kinase inh
O=C(O)Cc1ccc(NC(=O)C2CCCCC2C(=O)O)cc1 (stereo unspecified) across the screens: -9	8	2	1.1	-7
Cc1c(C(=O)Nc2ccc(OC(F)(F)F)cc2)sc2nc3n(c(=O)c12)CCC3 across the screens: -19	9	1	1	-6

Only part of the results is shown; count on the stated rates, not on these rows.
